Six1-Eya2 blk – qHTS Assay for Inhibitors of the Six1/Eya2 Interaction | activity change, % (test concentration not listed) | AlphaScreen GST-Six1/His-Eya2 binding, biochemical; stronger effect = lower value; control for the full effect not named in the record | 360,000 tested, 0.56% active; in the data active = activity change below about -65%; inconclusive = about -30% to -65%; inactive = above about -30%; also: % is scaled to controls: 0 for no effect and ±100 for the full control effect; compound concentration not given in the record
Target sequence (O00167 whole entry, looked up): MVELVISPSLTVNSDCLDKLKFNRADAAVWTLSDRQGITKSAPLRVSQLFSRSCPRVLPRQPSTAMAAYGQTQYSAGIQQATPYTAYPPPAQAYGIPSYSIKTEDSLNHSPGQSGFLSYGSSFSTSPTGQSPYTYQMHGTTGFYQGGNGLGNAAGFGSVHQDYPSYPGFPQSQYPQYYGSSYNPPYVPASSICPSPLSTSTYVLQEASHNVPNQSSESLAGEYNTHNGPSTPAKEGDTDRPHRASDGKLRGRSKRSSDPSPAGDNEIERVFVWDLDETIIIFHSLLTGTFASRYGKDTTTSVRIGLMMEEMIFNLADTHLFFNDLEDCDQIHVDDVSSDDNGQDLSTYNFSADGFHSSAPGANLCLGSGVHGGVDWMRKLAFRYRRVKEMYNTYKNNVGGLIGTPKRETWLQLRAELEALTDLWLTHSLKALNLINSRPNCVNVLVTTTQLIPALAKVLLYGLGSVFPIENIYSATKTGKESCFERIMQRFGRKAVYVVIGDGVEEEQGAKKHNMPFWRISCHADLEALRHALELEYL
Target sequence (Q15475 whole entry, looked up): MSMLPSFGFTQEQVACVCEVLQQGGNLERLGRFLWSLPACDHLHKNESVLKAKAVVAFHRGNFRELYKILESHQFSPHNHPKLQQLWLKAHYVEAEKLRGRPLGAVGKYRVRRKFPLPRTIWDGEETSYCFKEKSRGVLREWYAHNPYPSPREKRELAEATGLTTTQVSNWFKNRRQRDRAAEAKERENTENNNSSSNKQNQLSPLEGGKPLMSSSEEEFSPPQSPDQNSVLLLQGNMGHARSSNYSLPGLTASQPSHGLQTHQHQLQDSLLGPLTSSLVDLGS
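Compounds are tested against tagged Six1 and Eya2 proteins bridged by glutathione donor and nickel acceptor beads; after a one-hour incubation at 37 °C without light, AlphaScreen emission is recorded.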
D2 agonist – Beta-Arrestin HTS for Positive Allosteric Modulators of the Human D2 Dopamine Receptor: Agonists; DiscoveRx PathHunter D2 beta-arrestin, luminescence, 90 min; 100% = 57 uM dopamine signal; activation, % (no concentration beside the values); 360,000 tested, 0.084% active; in the data active = activation above about 40%; inconclusive = about 15% to 40%; inactive = below about 15%; also: compound concentration not given in the record; the text of the record calls up to 30% inactive
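Agonist mode: compounds alone added to overnight-plated D2 PathHunter cells for 90 min at 37 C, with 57 uM final dopamine (EC100) defining full response. Beta-arrestin recruitment detected by chemiluminescent reagent, read after 1 h at ambient temperature.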
PINK1 expr mod – A Quantitative High throughput Screen to Identify Chemical Modulators of PINK1 Expression; PINK1 immunofluorescence, high-content cytometry, 24 h; Potency, µM (highest dose often 76.6 µM), inactives show at the highest dose activation (PINK1 increase), actives largely listed as activators; 410,000 tested, 0.2% active; active = well fitted activation curve with a large enough effect; inconclusive = small, poorly fitted or top-dose-only effect; inactive = flat fitted curve, though single readings scatter; cell line not stated here;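 also: potency is read from the fitted curve at half-maximal effect; % of control where 0% means no effect; nearly all actives have a fitted effect of over 65% in size; a mitochondrial uncoupler was the plate control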
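Stable cell line, 250 cells/well, 12 h attachment; compounds pinned at 5 concentrations, 24 h; CCCP control. Fixed with nuclear dye, primary antibodies 12 h at 10 degrees C, secondary plus cell stain; laser-scanning cytometer read.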
TRPML1 agonist – qHTS for Agonists of the Human Mucolipin Transient Receptor Potential 1 (TRPML1) | Mucolipin-1 (Homo sapiens), Q9GZU1 | TRPML1-expressing cells, Ca2+ dye fluorescence, FDSS; host cell line not named in the record; reference of the full effect not given here | activation, % (no concentration beside the values) | 410,000 tested, 0.12% active | AID 624414, 2012; in the data active = activation above about 50%; inconclusive = about 30% to 50%; inactive = below about 30%; also: 0% is about no effect; the text of the record puts the active cut at 80%
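Kinetic FDSS Ca2+ read in Tet-induced TRPML1-DL cells (ABD Ca8 dye plus quencher, 45-90 min RT loading): baseline, then compound, then 110 s agonist window; EC80 agonist 54-4 at 4uM final added afterwards for a 110 s antagonist window.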
CtBP-E1A inh – qHTS Assay for Inhibitors of the CtBP/E1A Interaction | CtBP / adenovirus E1A interaction (AlphaScreen) | AlphaScreen GST-E1A/His-CtBP binding, 1536-well; stronger effect = lower value; control for the full effect not named in the record | activity change, % (no concentration beside the values) | 340,000 tested, 0.49% active | AID 651724, 2012; in the data active means activity change below about -65%; inconclusive means about -30% to -65%; inactive means above about -30%; also: % is scaled to controls: 0 for no effect and ±100 for the full control effect; compound concentration not given in the record
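In 5 uL wells, 23 nL compound meets equimolar GST-E1A and His-CtBP (5X stock 125 nM each) for 2 h, 37 °C. Beads (5X, 50 ug/mL) then 1 h, 37 °C, dark.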
D2 PAM – Beta-Arrestin HTS for Positive Allosteric Modulators of the Human D2 Dopamine Receptor: Potentiators; D(2) dopamine receptor (Homo sapiens), P14416; DiscoveRx D2 beta-arrestin cells, luminescence, 90 min; 100% = 57 uM dopamine signal; potentiation, % (concentration not given with the values); 360,000 tested, 0.23% active; active = potentiation of 50% or more; inconclusive = 30% to 50%; inactive = 30% or less;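 also: compound concentration not given in the record; tested on top of an EC20 dose of dopamine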
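PathHunter D2 cells, attached overnight at 37 deg C, received compound in DMSO plus dopamine at EC20 (50 nM final) for 90 min at 37 deg C. Beta-arrestin recruitment was read as luminescence after 1 h with detection reagent at ambient temperature.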
* hit, by the source's call; ? = inconclusive; nt = not tested or not shown; & = joins results of further samples; [ ] = another dose, or the depositor's remark.

SMILES | Six1-Eya2 blk | D2 agonist | PINK1 expr mod | TRPML1 agonist | CtBP-E1A inh | D2 PAM
O=C(CN1CCC(NC(=O)c2ccccc2F)CC1)NCc1ccc(F)cc1 | -0.4 | -3.0 | -0.9% | -0.7 | 3.4 | -7.1
Cc1ccc(N2CC(C(=O)NC3CC3)CC2=O)cc1 (configuration not stated) | 8.7 | 1.7 | -0.2% | 0.9 | 2.2 | -0.7
CCN(C[C@H]1N[C@@](C)(C(=O)OC)[C@H]2C(=O)N(Cc3ccccc3)C(=O)[C@@H]12)C(=O)COC | 5.4 | -0.4 | -0.2% | 3.5 | 3.7 | -6.0
N#Cc1c(NC(=O)c2cc(C3CC3)on2)sc2c1CCC2 | -1.0 | -4.6 | 5.1% | 1.7 | 0.0 | -12.1
CCSc1nnc(NC(=O)C(C)C)s1 | 7.1 | -3.5 | 1.0% | -0.5 | -2.4 | -8.1
COc1ccc(N(CC(=O)Nc2cccc3ccccc23)S(C)(=O)=O)c(OC)c1 | -6.6 | -5.3 | 1.1% | 0.2 | 6.2 | -8.1
COc1ccc(OCCCON2C(=O)c3ccccc3C2=O)cc1 | -2.5 | -2.1 | 0.0% | 4.4 | -0.4 | 0.1
COc1cccc(C(=O)OCC(=O)c2[nH]c(C)c(C(C)=O)c2C)c1 | 5.3 | 6.8 | 2.6% | 0.4 | nt | -1.0
CCC1Sc2ccc(S(=O)(=O)CCC(=O)NCc3ccc(C)o3)cc2NC1=O (configuration not stated) | -5.9 | -3.9 | 4.7% | -0.6 | -8.3 | -11.7
CN(C)CCNC(=O)C(C(=O)c1ccc(F)cc1)n1ccccc1=O (configuration not stated) | 2.2 | -0.8 | 0.1% | -0.4 | 0.1 | -0.3
CCCNC(=O)CN1C(=O)NC(CCc2ccccc2)C1=O (configuration not stated) | -15.0 | -2.6 | 0.5% | 0.6 | 0.4 | 11.2
CC(C)(C)c1ccc(NC(=O)COc2ccc(-n3ccnc3)cc2)cc1 | -20.9 | -3.0 | -0.3% | -0.9 | -12.1 | -46.2
C/C=C/c1ccc(OCc2cc(=O)n3cc(C)ccc3n2)c(OC)c1 | 6.1 | -2.3 | 8.5% | -0.8 | 2.5 | -4.6
CSc1ccc(S(=O)(=O)NCC(=O)OCC(=O)NCc2cccs2)cc1[N+](=O)[O-] | -10.3 | -2.6 | -3.2% | 1.1 | 0.7 | -67.6
O=C(c1ccc([N+](=O)[O-])cc1)N1CCN(Cc2ccccc2[N+](=O)[O-])CC1 | -1.9 | -1.4 | 3.5% | -0.3 | -4.0 | 0.8
CC1(C)C/C(=C(/C#N)C(N)=O)CCO1 | 2.4 | -1.0 | 0.8% | -0.1 | 6.2 | 8.0
CCc1c(C(=O)NNC(=S)NCc2ccccc2)csc1C | -4.3 | -8.0 | 8.8% | 1.7 | -6.2 | -20.7
Cc1ccc(-n2nc(C)c3c2OC(N)=C(C#N)C3c2ccncc2)cc1 (configuration not stated) | -3.6 | -2.8 | -1.3% | 0.1 | -11.7 | -23.9
COc1cccc2c1OC1(N3CCOCC3)CCCCC1C2C[N+](=O)[O-] (configuration not stated) | -0.1 | -5.1 | -1.1% | -0.5 | -1.2 | -7.2
CC(C)Cc1nnc(NC(=O)CS(=O)(=O)Cc2ccccc2)s1 | 2.4 | 0.7 | 2.2% | 0.1 | nt | -6.7
Cc1c(C(=O)NCCSc2ccc(Cl)cc2)cccc1[N+](=O)[O-] | 4.7 | -3.5 | 4.4% | -0.6 | 11.1 | -6.0
Cc1ccc(C(=O)c2ccccc2C(=O)OCC(=O)N2CC(C)CC(C)C2)cc1 (configuration not stated) | 1.1 | -3.7 | -1.2% | 2.3 | -4.4 | 3.9
O=C(CN(C(=O)CNS(=O)(=O)c1ccc(F)cc1)c1ccccc1)NCc1ccco1 | -2.6 | -0.8 | 3.4% | -0.4 | 3.2 | -3.5
COc1cc([N+](=O)[O-])ccc1NC(=O)COC(=O)c1c[nH]c(=O)[nH]c1=O | 0.5 | 0.0 | 0.6% | 0.1 | 7.9 | -2.2
CC(C)CC(NC(=O)C1CCC(C)CC1)C(=O)Nc1ccccc1F (configuration not stated) | 2.2 | -0.9 | 6.6% | -0.5 | -0.7 | -2.2
(more compounds)
SMILES | Six1-Eya2 blk | D2 agonist | PINK1 expr mod | TRPML1 agonist | CtBP-E1A inh | D2 PAM
CCc1cccc(NC(=O)CCNC(=O)Cn2ccc3ccccc3c2=O)c1 | 1.3 | 5.3 | 6.2% | 0.0 | -2.0 | -9.4
COc1ccc(CNC(=O)CN(c2cc(C)cc(C)c2)S(=O)(=O)c2c(C)[nH]c(=O)[nH]c2=O)cc1 | 12.1 | 11.2 | 1.2%&0.1% | 0.1&-0.4 | -18.1 | -8.3
Cc1ccc(C(=O)N(Cc2cccnc2)Cc2cc3cc(C)ccc3n3nnnc23)cc1 | 3.3 | -3.5 | -0.7% | 0.7 | nt | 2.6
COc1cccc(C(=O)Cn2c(N3CCOCC3)nc3c2c(=O)n(C)c(=O)n3C)c1 | 0.7 | -3.8 | ? | 1.5 | 14.1 | -6.0
CCN(CC)CCOCCOc1cc(C)c(Cl)c(C)c1 | -0.6 | -0.5 | nt | -0.4 | 7.6 | -17.8
C=C1C(C(=O)Nc2ccc(OCC)cc2)C1C(=O)Nc1ccc(OCC)cc1 (configuration not stated) | 5.8 | -5.0 | 4.7% | 0.1 | 0.2 | -7.7
C=CCn1c(COc2ccccc2F)nnc1SCCN1C(=O)c2ccccc2C1=O | -3.7 | 1.9 | -2.2% | 0.4 | -21.7 | -6.3
O=S(=O)(c1ccccc1)N1CCN(C2CCN(Cc3ccccc3)CC2)CC1 | -3.9 | -2.5 | 5.7% | 1.2 | -2.2 | -26.3
CC(C)CN(CC(C)C)CC(O)COc1ccc([N+](=O)[O-])cc1 (configuration not stated) | -3.5 | -5.6 | ? | -0.3 | -0.1 | -34.6
Cc1ccc(CNC(=O)Cn2cnc(S(=O)(=O)N3CCC(C)CC3)c2)o1 | 2.9 | -2.6 | 0.5% | 0.0 | 6.9 | -8.5
COc1cccc(CNC(=O)c2nnn(-c3ccc(OC(F)(F)F)cc3)c2N)c1 | -1.2 | -1.3 | nt | 1.7 | 1.1 | -10.8
CCN1CCN(c2ccc(S(=O)(=O)N3CCCCC3)cc2NC(=O)Cc2ccccc2F)CC1 | 0.6 | -3.5 | -3.9% | -0.1 | -7.8 | -20.6
COc1ccc(NC(=S)N(CCCN2CCC(C)CC2)Cc2cccs2)cc1 | -4.5 | -0.9 | 0.3% | 0.1 | -5.6 | -18.4
COc1cccc(/C=N/Nc2ccc(Cl)nn2)c1OC | -1.6 | 4.2 | -0.8% | 0.8 | nt | 6.3
Cc1nc2ccc(NC(=O)c3ccccc3)cc2c(=O)n1Cc1ccc(F)cc1 | -1.7 | 2.3 | 3.0% | -0.6 | 2.4 | -8.1
COc1ccccc1CNC(=O)C(NC(=O)Nc1ccccc1)C(C)C (configuration not stated) | 6.7 | -2.1 | 1.5% | -1.5 | 20.9 | -6.5
CCOCCCNC(=O)c1cc2c(s1)-c1ccccc1SC2 | -4.6 | -3.9 | 1.7% | -0.9 | 4.0 | -6.2
COc1cc2c(cc1OC)CN(Cc1cc(=O)n3cc(C)ccc3n1)CC2 | 5.4 | -1.9 | -3.4% | -0.2 | -0.3 | -13.4
O=S1(=O)CC(N2CCN(CC3CC3)CC2)CN1CCc1ccccc1 (configuration not stated) | 5.8 | -1.2 | 2.9% | 0.9 | 6.1 | -7.0
O=C(NC1CCCCCCC1)c1cccnc1 | -12.6 | -3.5 | -0.2% | -1.0 | 17.3 | -15.8
CC(C)(C)OC(=O)NCc1n[nH]c(=S)n1C1CC1 | -4.7 | -3.8 | 1.5% | -0.6 | 1.9 | -6.8
CCOc1ccc(S(=O)(=O)N(CC)CC(=O)NCc2ccccn2)cc1C | 12.6 | -4.7 | 2.6% | -1.3 | -3.9 | -8.6
CN(C)C(=O)N1CCN(c2nc(-c3ccccc3)cs2)CC1 | -5.9 | -3.9 | -0.4% | 0.6 | -16.2 | -14.8
COCC(=O)Nc1ccc(C(C)C)cc1 | -2.0 | 0.4 | 2.5%[38.3 µM] | -0.5 | 2.6 | -10.4
Cc1cccc(NC(=O)Cn2cnc3c(oc4nc5c(cc43)COC(C)(C)C5)c2=O)c1 | -1.9 | -0.1 | 16.0% | 4.5 | 1.7 | -1.2
(next part)
SMILES | Six1-Eya2 blk | D2 agonist | PINK1 expr mod | TRPML1 agonist | CtBP-E1A inh | D2 PAM
O=C(NCc1cccnc1)C(=O)NCC1OCCCN1S(=O)(=O)c1ccccc1 (configuration not stated) | -5.6 | 0.2 | -0.8% | 0.1 | -13.7 | -25.8
COCCn1c(C)cc(C2=NNC(=Nc3ccccc3)SC2)c1C | 14.5 | -2.7 | 5.3% | -0.5 | 31.7 | -14.9
CN(CC(=O)NCCN1CCN(Cc2ccccc2)CC1)S(=O)(=O)c1cccc2nsnc12 | 2.7 | -3.1 | -2.7% | 0.5 | -2.2 | -14.3
O=C1C(=O)N(CCN2CCOCC2)C(c2ccc(Cl)cc2)/C1=C(/O)c1ccc(S(=O)(=O)N2CCOCC2)cc1 (configuration not stated) | 15.3 | -0.7 | -0.6% | 0.0 | 0.0 | -2.6
CC(C)Sc1nnc([C@H](C)NC(=O)OC(C)(C)C)o1 | 13.1 | -3.1 | 29.6%[38.3 µM] | -0.1 | 8.3 | -8.5
O=C(NCCCNC(=O)c1ccc(F)cc1)c1ccc(F)cc1 | -1.1 | 1.9 | -0.5% | -0.8 | nt | -50.7
Cc1cc(S(=O)(=O)NC(C)c2nnc3ccccn23)ccc1Br (configuration not stated) | 7.7 | -0.2 | 5.8% | 2.1 | -4.0 | -5.0
COc1cc2c(cc1NC(=O)CSc1ccccn1)oc1ccccc12 | 12.1 | 0.2 | 4.7% | 1.2 | 4.5 | -3.3
O=C(NCC1CCCO1)C1CCN(S(=O)(=O)c2cc(Cl)ccc2Cl)CC1 (configuration not stated) | -15.1 | -0.9 | -0.6% | -0.3 | -3.6 | -4.3
Cc1ccccc1/C=N/Nc1ccc(Cl)nn1 | -0.5 | -5.6 | 9.2% | 0.5 | nt | -8.8
Cc1nnc2c3ccccc3c(-c3ccccc3)nn12 | -12.3 | 0.8 | 1.5%[38.3 µM] | 0.6 | -11.4 | -12.7
COc1cc(NC(=O)/C=C/c2ccccc2[N+](=O)[O-])cc(OC)c1 | -2.5 | -1.6 | -1.6% | 1.1 | -1.3 | -8.3
O=C(O)COCC(=O)Nc1ccc(-n2cnnn2)cc1 | -2.4 | 4.0 | -0.2% | -0.3 | nt | -5.0

Two entries picked at random from those above:
SMILES | Six1-Eya2 blk | D2 agonist | PINK1 expr mod | TRPML1 agonist | CtBP-E1A inh | D2 PAM
O=C(NCCCNC(=O)c1ccc(F)cc1)c1ccc(F)cc1 | -1.1 | 1.9 | -0.5% | -0.8 | nt | -50.7
O=C(O)COCC(=O)Nc1ccc(-n2cnnn2)cc1 | -2.4 | 4.0 | -0.2% | -0.3 | nt | -5.0

Bioassay records deposited in PubChem BioAssay by National Center for Advancing Translational Sciences (NCATS).
